PINK1 expr mod – A Quantitative High throughput Screen to Identify Chemical Modulators of PINK1 Expression | Potency, µM (titrated, usually from 76.6 µM), inactives show at the top dose activation (PINK1 increase), most hits filed as activators | 410,000 tested, 0.2% active | PINK1 immunofluorescence, high-content cytometry, 24 h | AID 624263, 2012; active = well fitted activation curve with a large enough effect; inconclusive = small, poorly fitted or top-dose-only effect; inactive = flat fitted curve, though single readings scatter; cell line not stated here;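 further: potency means the concentration at half of the fitted maximal effect; % of control where 0% means no effect; nearly all actives have a fitted effect of over 65% in size; a mitochondrial uncoupler was the plate control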
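A stable cell line was treated with compounds at 5 concentrations for 24 hours, with CCCP as control. PINK1 levels and mitochondrial localization were measured by immunofluorescence with mitochondrial, cell and nuclear markers after fixation, read by laser-scanning cytometry.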
TRPML1 ag – qHTS for Agonists of the Human Mucolipin Transient Receptor Potential 1 (TRPML1) | Mucolipin-1 (Homo sapiens), Q9GZU1 | TRPML1-expressing cells, Ca2+ dye fluorescence, FDSS; host cell line not named in the record; reference of the full effect not given here | activation, % (concentration not given with the values) | 410,000 tested, 0.12% active; in the data active = activation above about 50%; inconclusive = about 30% to 50%; inactive = below about 30%; further: 0% is about no effect; the text of the record puts the active cut at 80%
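Calcium fluorescence on an FDSS kinetic reader gave the read-out. Tet-induced TRPML1-DL cells were plated overnight, dye-loaded (Ca8 with quencher, 45-90 min, room temperature, dark), then read 110 s after compound addition, and again 110 s after 4uM final 54-4 (EC80).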
TRPML1 inh – qHTS for Inhibitors of the Human Mucolipin Transient Receptor Potential 1 (TRPML1) | AID 624415, 2012 | activity change, negative = inhibition, % (no concentration beside the values) | TRPML1-inducible cells, Ca2+ dye fluorescence, FDSS; hits give low values; inhibition of EC80 agonist-evoked calcium signal | 390,000 tested, 0.02% active; in the data active means activity change below about -50%; inconclusive means about -30% to -50%; inactive means above about -30%;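 further: stimulus is agonist 54-4 at its EC80 concentration; on the % scale 0 is the no-effect control and ±100 the full control effect; compound concentration not given in the record; the text of the record puts the active cut at -80%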
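Tet-induced TRPML1-DL cells loaded with Ca8 no-wash calcium dye were read kinetically on FDSS. Compound addition was followed by EC80 agonist 54-4 (4 uM final); inhibition was read over 110 s.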
Six1-Eya2 inh – qHTS Assay for Inhibitors of the Six1/Eya2 Interaction | AlphaScreen GST-Six1/His-Eya2 binding, biochemical; hits give low values; control for the full effect not named in the record | Homeobox protein SIX1 (Homo sapiens) + Protein phosphatase EYA2 (Homo sapiens), … | 360,000 tested, 0.56% active | activity change, % (concentration not given with the values); in the data active = activity change below about -65%; inconclusive = about -30% to -65%; inactive = above about -30%; further: on the % scale 0 is the no-effect control and ±100 the full control effect
Target sequence (O00167 whole entry, looked up): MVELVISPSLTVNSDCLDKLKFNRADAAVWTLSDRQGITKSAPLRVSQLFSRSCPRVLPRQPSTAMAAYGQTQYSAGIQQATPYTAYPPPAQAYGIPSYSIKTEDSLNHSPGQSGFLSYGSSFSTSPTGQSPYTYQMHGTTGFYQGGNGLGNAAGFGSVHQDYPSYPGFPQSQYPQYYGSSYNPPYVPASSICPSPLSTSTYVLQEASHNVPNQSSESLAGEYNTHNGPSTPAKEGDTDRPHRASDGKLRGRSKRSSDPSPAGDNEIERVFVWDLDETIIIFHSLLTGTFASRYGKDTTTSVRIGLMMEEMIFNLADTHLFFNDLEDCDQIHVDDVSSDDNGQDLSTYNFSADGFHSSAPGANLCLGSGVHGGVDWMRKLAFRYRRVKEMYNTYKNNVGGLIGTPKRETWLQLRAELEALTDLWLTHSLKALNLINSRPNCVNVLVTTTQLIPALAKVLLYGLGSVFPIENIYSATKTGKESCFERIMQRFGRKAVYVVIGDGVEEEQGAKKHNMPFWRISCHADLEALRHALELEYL
Target sequence (Q15475 whole entry, looked up): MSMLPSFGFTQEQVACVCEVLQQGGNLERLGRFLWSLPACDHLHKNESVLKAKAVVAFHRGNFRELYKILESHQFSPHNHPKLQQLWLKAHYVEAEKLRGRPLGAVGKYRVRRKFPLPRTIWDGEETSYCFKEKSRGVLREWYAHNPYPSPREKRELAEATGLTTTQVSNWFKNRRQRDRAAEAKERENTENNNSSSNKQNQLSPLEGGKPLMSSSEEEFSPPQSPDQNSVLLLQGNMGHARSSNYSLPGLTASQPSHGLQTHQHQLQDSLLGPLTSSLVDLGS
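AlphaScreen luminescence read after one hour at 37 °C in darkness. Pin-transferred compounds met GST-Six1 and His-Eya2 protein (5X stock 250 nM/500 nM) plus glutathione donor and Ni-chelate acceptor beads (5X, 50 ug/mL).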
CtBP-E1A inh – qHTS Assay for Inhibitors of the CtBP/E1A Interaction; CtBP / adenovirus E1A interaction (AlphaScreen); AlphaScreen GST-E1A/His-CtBP binding, 1536-well; hits give low values; control for the full effect not named in the record; activity change, % (test concentration not listed); 340,000 tested, 0.49% active; AID 651724, 2012; in the data active means activity change below about -65%; inconclusive means about -30% to -65%; inactive means above about -30%; further: on the % scale 0 is the no-effect control and ±100 the full control effect; compound concentration not given in the record
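AlphaScreen with 125 nM GST-E1A and 125 nM His-CtBP (5X stocks) in Tris pH 8.0, 300 mM NaCl, BSA, Tween 20, TCEP. Compounds preincubated 2 h at 37 deg C, then glutathione donor/nickel acceptor beads added for 1 h at 37 deg C in dark.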
D2 agonist – Beta-Arrestin HTS for Positive Allosteric Modulators of the Human D2 Dopamine Receptor: Agonists. DiscoveRx PathHunter D2 beta-arrestin, luminescence, 90 min; 100% = 57 uM dopamine signal. 360,000 tested, 0.084% active. activation, % (test concentration not listed). D(2) dopamine receptor (Homo sapiens), P14416; in the data active = activation above about 40%; inconclusive = about 15% to 40%; inactive = below about 15%; further: compound concentration not given in the record; the text of the record calls up to 30% inactive
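DiscoveRx PathHunter D2 beta-arrestin cells (2,100/well) attached overnight, then compound-stimulated 90 min at 37 C in HBSS/10 mM HEPES/0.1% Tween-20 buffer; beta-galactosidase complementation read by luminescence after 1 h at ambient temperature. Dopamine 57 uM final (EC100) as control.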
* hit, by the source's call; ? = inconclusive; · = not tested or not shown; & = joins results of further samples; [ ] = dose if it differs, or a comment. Not a hit list; overall some 1% were active at least once.

Under each structure: CtBP-E1A inh, TRPML1 inh, D2 agonist, Six1-Eya2 inh, PINK1 expr mod, TRPML1 ag
1) CCC(=O)N(CCC(c1ccccc1)c1ccc2c(c1)OCO2)Cc1ccc(OC(C)C)cc1 (stereo not given)
    ·, 24.8, ·, ·, 13.6%, 3.8
2) Cc1nc(-c2ccc(NC(=O)c3ccco3)cc2)cs1
    0.0, 40.0, 6.0, 0.0, -0.5%, 2.4
3) C/C(=N\NC(=O)c1nnn(-c2nonc2N)c1-c1cccs1)c1ccc(C)cc1
    5.5, 1.4, -8.8, ?, 15.1%, 3.3
4) COc1ccccc1C(=O)NCC(=O)OCc1ccc(Br)cc1
    1.7, -5.1, -1.9, 0.1, 0.1%, 1.8
5) CCCCCNC1=CC(=O)CC(c2ccccc2)C1 (stereo not given)
    -0.9, -20.0, 1.1, -11.1, 10.7%, -0.3
6) Cc1ccc(NC(=O)C2CCN(C(=O)c3cnn(-c4ccccc4)c3-n3cccc3)CC2)cc1Cl
    ·, 14.2, ·, ·, 2.9%, 0.5
7) CCOc1ccccc1C=NNC(=O)C(=O)NN=Cc1ccccc1OCC
    -2.1, 10.6, -0.6, 2.6, 19.1%, 0.3
8) COCC(=O)NCc1ccc2c(c1)cc(C)n2C
    -6.2, -4.7, 9.8, -0.7, 0.3%, 1.6
9) CCOC(=O)Cc1ccc(NC(=O)N2CCc3c(sc4c3CCCC4)C2c2ccc(F)cc2)cc1 (stereo not given)
    ·, 10.2, ·, ·, -1.7%, 0.0
10) COc1ccccc1OCc1ccc(C(=O)NN)o1
    ·, -27.1, 3.8, 2.6, -0.5%, 0.7
11) Cc1noc(C)c1S(=O)(=O)N(C)C[C@H]1OCCCC[C@@H](C)Oc2ccc(NS(=O)(=O)c3cn(C)cn3)cc2C(=O)N([C@H](C)CO)C[C@@H]1C
    4.3, -14.3, -1.6, 9.2, -1.5%, -0.1
12) CCOC(=O)c1c(SCC(=O)Nc2nc3ccc(C)cc3s2)nc(=O)[nH]c1C
    ·, 11.4, ·, ·, -0.8%, 1.0
13) CCc1cccc(NC(=O)C(Cc2ccccc2)NS(=O)(=O)c2ccc3c(c2)oc(=O)n3C)c1 (stereo not given)
    ·, 7.8, ·, ·, 6.6%, 3.6
14) CCCNc1nc(Cl)nc(NCc2cccnc2)n1
    -14.8, -8.7, -1.3, -12.5, -1.0%, 1.1
15) CCOC(=O)C1(C)CCCN(C(=O)c2cccnc2)C1 (stereo not given)
    8.4, ·, -3.4, 8.2, -0.6%, -0.3
16) O=C(CSc1nnc(-c2n[nH]c3ccccc23)n1-c1ccccc1)Nc1cccc(Cl)c1
    -1.2, -16.9, -1.8, -7.4, ?, 1.8
17) Cc1ccc(CNC(=O)c2cnn(-c3cccc(C)c3)c2C2CCN(C(=O)OC(C)(C)C)CC2)cc1
    ·, -5.0, ·, ·, 0.1%, 0.3
18) Cc1cccc(C(=O)NC2CC3CCCC(C2)N3S(=O)(=O)c2ccccc2)c1 (stereo not given)
    8.1, -7.3, 0.5, 5.5, -2.6%[38.3 µM], 1.8
19) Cc1ccc(S(=O)(=O)N(C)CC(=O)OCC(=O)NC(c2ccccc2)c2ccccc2)cc1
    -3.8, 42.6, -5.2, -0.8, -0.3%, 3.7
20) COc1ccc(C(=O)Nc2ccc3nc(N4CCCCC4)cc(C)c3c2)cc1OC
    -2.1, 0.3&2.3, 0.3, -9.9, 1.4%&1.8%, -0.2&-0.8
21) COc1ccc(N2CCN(C(c3cccc(OC)c3OC)c3nnnn3C3CCCC3)CC2)cc1 (stereo not given)
    ?, -11.3, -3.9, ?, 1.7%, 19.9
22) COc1ccc(CCC(=O)NC2CCCc3ccccc32)cc1OC (stereo not given)
    5.3, -3.8, -0.5, 1.8, -0.5%, 0.7
23) O=C(COCc1cc(-c2ccc(F)cc2)on1)Nc1cccc(Cl)c1Cl
    ·, 18.1, ·, ·, 2.5%, 2.0
24) O=C(NC1CC1)C1=COCCO1
    -4.1, 10.1, 3.1, 3.1, -1.1%, 0.3
25) COc1ccc(CCNC(=O)c2ccc(-c3ccc([N+](=O)[O-])cc3Cl)o2)cc1
    -0.8, 16.2, 0.4, ?, -3.2%, 1.9
26) CC(=O)Nc1cc(-c2ccc(C(=O)NC3CC3)cc2)cn2c(-c3cccc(C(F)(F)F)c3)cnc12
    -3.2, ·, -2.4, -4.1, 1.2%, -0.2
27) Cc1cc(=O)oc(C)c1C(=O)NCCc1ccccc1
    7.1, 4.5, -1.3, 6.2, 0.8%, -0.6
28) COc1ccc(NC(=O)CSc2nnc(C3CC3)n2C)cc1S(=O)(=O)N1CCOCC1
    -7.3, 5.4, 0.1, -1.4, -0.9%, -0.1
29) COc1ccc(-c2csc(NC(=O)CC(C)C)n2)cc1
    -1.1, 1.6, 0.3, -1.3, 0.3%, 1.1
30) Cc1cccc(NC(=S)N(Cc2ccco2)C(C)c2cccs2)c1 (stereo not given)
    -1.9, -2.1, -8.3, -5.4, 3.6%, 1.0

Reprinted from the part before: 2 entries, then new ones.
Under each structure: CtBP-E1A inh, TRPML1 inh, D2 agonist, Six1-Eya2 inh, PINK1 expr mod, TRPML1 ag
29) COc1ccc(-c2csc(NC(=O)CC(C)C)n2)cc1
    -1.1, 1.6, 0.3, -1.3, 0.3%, 1.1
30) Cc1cccc(NC(=S)N(Cc2ccco2)C(C)c2cccs2)c1 (stereo not given)
    -1.9, -2.1, -8.3, -5.4, 3.6%, 1.0
31) Cc1ccc(NC(=O)CC2Nc3ccccc3NC2=O)cc1Cl (stereo not given)
    -0.9, 9.1, -0.7, 0.6, 4.2%, -0.9
32) Cc1onc(-c2ccccc2Cl)c1C(=O)NCc1cccs1
    12.7, -2.5, -0.7, 6.9, -0.1%, -1.1
33) Cc1ccc2c(COC(=O)CNS(=O)(=O)c3ccccc3)cc(=O)oc2c1
    -1.8, 9.7, -1.7, 0.1, 1.1%, 0.0
34) Cc1ccc(C(=O)NCC(=O)O)s1
    -2.6, 1.7, -4.0, 9.3, 3.4%, 0.6
35) C/C(=N\N=C(N)N)c1cccc([N+](=O)[O-])c1
    -4.9, -4.4, -1.7, -3.2, -0.1%, 1.6
36) CCS(=O)(=O)Nc1ccc(-c2cc(-c3ccccc3)c3cc(C)ccc3n2)cc1
    -0.9, -8.3, -1.8, -2.7, -2.0%, 2.4
37) CCN(CC)CCOCCOc1ccccc1F
    2.6, -12.3, 1.1, -1.0, 0.4%[38.3 µM], 0.9
38) COc1ccc(C2C=C(c3ccc(F)cc3)Nc3nc(-c4ccc(Cl)cc4)nn32)cc1 (stereo not given)
    ·, -7.1, ·, ·, ?, 2.5
39) Cc1cc(C)cc(NC(=S)NC2CC3CCC(C2)N3Cc2ccco2)c1 (stereo not given)
    -3.7, -9.4, -8.7, -9.5, -1.9%, 1.9
40) c1ccc(-c2ccc(-c3nc(-c4cccnc4)no3)cc2)cc1
    7.0, -4.6, -0.8, 8.0, 6.0%[38.3 µM], -0.3
41) COc1ccccc1C1CC(=O)NC(C)=C1C(=O)OCC(C)C (stereo not given)
    6.2, -3.6, -3.2, -0.8, 17.6%, 2.0
42) COc1ccc(NC(=S)N(CCCN2CCCC2)Cc2cccs2)cc1
    13.3, -3.8, 1.7, 2.8, -0.8%, -0.4
43) CCOP(=O)(c1ccccc1)C(O)c1ccc(F)cc1 (stereo not given)
    5.0, -0.4, -0.5, 4.3, -0.8%, 0.5
44) CC(C)(C)OC(=O)N1CCC(c2c(C(=O)N3CCN(C4CCCCC4)CC3)cnn2-c2ccccc2)CC1
    ·, 6.9, -1.5, -1.8, 1.1%, -0.3
45) COc1ccc(NC(=O)Cn2nnc(-c3ccccc3NS(=O)(=O)c3ccc(OC)cc3)n2)cc1
    -4.4, 8.4, 1.7, 2.6, ?, 0.0
46) O=C(NCc1ccc(Cl)cc1)c1cc2ccccn2n1
    -4.9, 20.3, -2.1, 6.4, 0.5%, 0.6
47) COc1ccccc1N1CCN(C(c2ccccc2)c2nnc(-c3ccccc3Cl)o2)CC1 (stereo not given)
    ·, -17.2, ·, ·, 0.2%, 0.6
48) COc1ccccc1[C@@]1(C)ON(c2ccccc2C(F)(F)F)C1=O
    -20.6, -1.2, -4.7, 17.6, -0.1%, -0.4
49) CCOc1ccc(C2CC=C(C(C)=O)CN2S(=O)(=O)c2ccc(C)cc2)cc1 (stereo not given)
    -9.4, ·, -5.4, 11.8, 0.1%, 0.0
50) CC(=O)c1cccc(NC(=O)N2CCC(c3nnc(SCC(N)=O)n3C)CC2)c1
    2.8, 2.1, -1.8, 4.6, -1.7%, 0.5
51) O=C(Nc1ccccc1N1CCOCC1)C1=COCCO1
    -0.8, -9.6, 0.7, -5.0, 0.2%, 0.0
52) CCOC(=O)C1CCN(C(=O)c2cc3ccc4ccc(C)[nH]c4c3n2)CC1
    ·, -11.9, ·, ·, 0.8%, -0.4
53) Nc1c(C(=O)CSc2nnc(COc3ccc(Cl)cc3)o2)c(=O)[nH]c(=O)n1C1CC1
    ·, -3.2, -2.4, 5.4, 6.3%, -0.3
54) COc1cccc(NC(=O)NCC2CCN(Cc3ccc(F)cc3)CC2)c1
    ·, 18.9, -3.7, 1.1, 0.1%, 1.4
55) CC(=O)N(Cc1ccccc1)c1ccc(C(=O)O)cc1
    1.9, -17.1, 1.5, 4.0, 0.7%, -0.1
56) COc1ccc(CC(=O)NCc2n[nH]c(=S)n2-c2ccc(F)cc2)cc1
    ·, 1.4, 3.9, 9.9, -1.4%, -0.3
57) CCCc1nc(N2CCCC2)c(C#N)c2c1CCCC2
    22.8, 35.2, -3.5, 17.2, ?, -0.6
58) O=c1[nH]c(-c2ccccn2)nc(C(F)(F)F)c1Br
    -83.4*, -7.1, -0.8, -75.6*, 1.4%, 0.3
59) Cc1nn(C)c(C)c1NC(=O)CC12CC3CC(CC(C3)C1)C2
    ·, -8.6, -4.7, -0.8, 1.3%, 1.1
60) COc1ccc(C)cc1S(=O)(=O)N1CCN(C(=O)c2ncoc2-c2cccc(F)c2)CC1
    7.8, -23.1, 5.1, -1.0, 2.5%, -0.1

High-throughput results: PubChem, National Center for Advancing Translational Sciences (NCATS)
